# SSB-PriA inh – inhibitors of Klebsiella pneumoniae PriA binding to SSB C-terminal tail, primary screen, biochemical, AlphaScreen | PriA–SSB C-terminal tail interaction (Klebsiella pneumoniae) | AlphaScreen SSBct-PriA binding, biotinylated peptide | inhibition, % at 33 µM | 430,000 compounds, 0.6% hits | AID 1272365, 2023; in the data active = inhibition mostly above about 37%, no sharp cut-off; inactive = mostly below about 20%;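 note: plate controls were negative control peptide for no effect and reference peptide for full effect; strong numbers were not always called active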
# * = called active by the depositor. These rows are one share of the data; most or all hits stand in other tables.
no.	Compound	SSB-PriA inh
1	O=C(NN=Cc1ccco1)c1cccs1	5
2	CN(C)CCCN1c2ccccc2Sc2ccc(C(F)(F)F)cc21	17
3	CC(C)(C)C(=O)/C(=C/c1cccc([N+](=O)[O-])c1)n1cncn1	-17
4	Clc1ccccc1CN1CCc2sccc2C1	-27
5	CCN(CC)CC(=O)Nc1c(C)cccc1C	5
6	C[N+]1(C)CCC(OC(=O)C(O)(c2ccccc2)C2CCCC2)C1 (centres undefined)	-19
7	Cc1ccc(CSc2nc(N)cc(=O)[nH]2)cc1	8

# 3 structures out of the list, ordered by formula weight, descending:
no.	Compound	SSB-PriA inh
2	CN(C)CCCN1c2ccccc2Sc2ccc(C(F)(F)F)cc21	17
3	CC(C)(C)C(=O)/C(=C/c1cccc([N+](=O)[O-])c1)n1cncn1	-17
5	CCN(CC)CC(=O)Nc1c(C)cccc1C	5

# Bioassay records from PubChem BioAssay.
